Compound activity as filed in PubChem.
TRPML1 ag: human mucolipin-1 channel agonism. Q9GZU1. TRPML1-expressing cells, Ca2+ dye fluorescence, FDSS; host cell line not named in the record; reference of the full effect not given here. activation, % (concentration not given with the values). 0.12% of 410,000 active. AID 624414; in the data active = activation above about 50%; inconclusive = about 30% to 50%; inactive = below about 30%; further: 0% is about no effect; the text of the record puts the active cut at 80%
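Agonist activity was taken from a 110 s kinetic Ca2+ dye read on the FDSS after pinning compounds onto TRPML1-DL cells. The cells were seeded at 1,500/well with Tet inducer, incubated about 16 h, then dye-loaded at room temperature.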
CtBP-E1A inh: inhibitors of CtBP/E1A interaction. AlphaScreen GST-E1A/His-CtBP binding, 1536-well; active compounds read low; control for the full effect not named in the record. activity change, % (concentration not given with the values). 0.49% of 340,000 active. AID 651724; in the data active means activity change below about -65%; inconclusive means about -30% to -65%; inactive means above about -30%; further: on the % scale 0 is the no-effect control and ±100 the full control effect
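Homogeneous bead-based format: GST-tagged E1A captured on glutathione donor beads, His-tagged CtBP on nickel acceptor beads; compounds precede bead addition by 2 h at 37 °C.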
D2 potentiator: human D2 receptor positive allosteric modulation; P14416; DiscoveRx D2 beta-arrestin cells, luminescence, 90 min; 100% = 57 uM dopamine signal; potentiation, % (test concentration not listed); 0.23% of 360,000 active; AID 624464; active = potentiation of 50% or more; inconclusive = 30% to 50%; inactive = 30% or less;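 further: compound concentration not given in the record; tested on top of an EC20 dose of dopamine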
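PathHunter beta-arrestin assay in DiscoveRx D2 cells. Compounds were added with an EC20 of dopamine (50 nM final) for 90 min at 37 deg C. Luminescence was read 1 h after detection reagent, with 57 uM dopamine as the EC100 control.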
Six1-Eya2 blk: inhibitors of human Six1/Eya2 interaction; activity change, % (test concentration not listed); Q15475+O00167; AlphaScreen GST-Six1/His-Eya2 binding, biochemical; active compounds read low; control for the full effect not named in the record; 0.56% of 360,000 active; in the data active = activity change below about -65%; inconclusive = about -30% to -65%; inactive = above about -30%; further: on the % scale 0 is the no-effect control and ±100 the full control effect
Target sequence (O00167 whole entry, looked up): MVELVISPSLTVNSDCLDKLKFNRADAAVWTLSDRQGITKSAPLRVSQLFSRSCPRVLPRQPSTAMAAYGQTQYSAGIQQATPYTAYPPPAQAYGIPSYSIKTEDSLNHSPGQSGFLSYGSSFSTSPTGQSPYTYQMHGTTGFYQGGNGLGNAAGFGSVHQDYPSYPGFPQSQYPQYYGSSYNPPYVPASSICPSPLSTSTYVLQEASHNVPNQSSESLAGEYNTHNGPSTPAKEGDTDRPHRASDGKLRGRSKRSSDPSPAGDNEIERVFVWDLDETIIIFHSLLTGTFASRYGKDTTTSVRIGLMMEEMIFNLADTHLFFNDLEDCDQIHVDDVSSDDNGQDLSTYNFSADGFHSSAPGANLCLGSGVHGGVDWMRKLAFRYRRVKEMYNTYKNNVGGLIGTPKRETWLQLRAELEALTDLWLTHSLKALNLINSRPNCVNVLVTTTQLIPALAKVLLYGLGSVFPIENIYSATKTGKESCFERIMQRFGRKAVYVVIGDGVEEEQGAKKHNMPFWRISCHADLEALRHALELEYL
Target sequence (Q15475 whole entry, looked up): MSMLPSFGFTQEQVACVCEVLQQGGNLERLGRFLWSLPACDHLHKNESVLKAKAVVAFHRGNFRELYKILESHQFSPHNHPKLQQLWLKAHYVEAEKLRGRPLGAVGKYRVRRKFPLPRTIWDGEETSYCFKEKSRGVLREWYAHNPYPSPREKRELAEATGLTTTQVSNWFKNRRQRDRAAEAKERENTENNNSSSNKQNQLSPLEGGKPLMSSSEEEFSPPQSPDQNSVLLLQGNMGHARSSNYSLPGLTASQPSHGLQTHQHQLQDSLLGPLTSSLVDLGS
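Compounds are tested against tagged Six1 and Eya2 proteins bridged by glutathione donor and nickel acceptor beads; after a one-hour incubation at 37 °C without light, AlphaScreen emission is recorded.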
PINK1 expr mod: modulators of PINK1 expression; PINK1 immunofluorescence, high-content cytometry, 24 h; Potency, µM (series often up to 76.6 µM), inactives show at the top dose activation (PINK1 increase), most hits filed as activators; 0.2% of 410,000 active; AID 624263; active = well fitted activation curve with a large enough effect; inconclusive = small, poorly fitted or top-dose-only effect; inactive = flat fitted curve, though single readings scatter; cell line not stated here;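 further: potency means the concentration at half of the fitted maximal effect; % of control where 0% means no effect; nearly all actives have a fitted effect of over 65% in size; a mitochondrial uncoupler was the plate control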
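A stable cell line was treated with compounds at 5 concentrations for 24 hours, with CCCP as control. PINK1 levels and mitochondrial localization were measured by immunofluorescence with mitochondrial, cell and nuclear markers after fixation, read by laser-scanning cytometry.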
D2 agonist: agonists of human D2 dopamine receptor (beta-arrestin). DiscoveRx PathHunter D2 beta-arrestin, luminescence, 90 min; 100% = 57 uM dopamine signal. activation, % (concentration not given with the values). 0.084% of 360,000 active. AID 624465; in the data active = activation above about 40%; inconclusive = about 15% to 40%; inactive = below about 15%; further: compound concentration not given in the record; the text of the record calls up to 30% inactive
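DiscoveRx PathHunter D2 beta-arrestin cells (2,100/well) attached overnight, then compound-stimulated 90 min at 37 C in HBSS/10 mM HEPES/0.1% Tween-20 buffer; beta-galactosidase complementation read by luminescence after 1 h at ambient temperature. Dopamine 57 uM final (EC100) as control.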
An asterisk follows results filed as active; u = inconclusive; x = no result given; & = joins results of further samples; [ ] = dose if it differs, or a comment.

Structure,TRPML1 ag,CtBP-E1A inh,D2 potentiator,Six1-Eya2 blk,PINK1 expr mod,D2 agonist
COC(=O)CCCC1=CC2=C(c3ccccc3)C(=O)C(C)(OC(=O)C3CCCC3)C(=O)C2=CN1CCc1c[nH]c2ccccc12 (configuration not stated),0.7,-3,1,-7,19%,0.8
COc1ccc(C2C(C#N)=C(N)Oc3cc(C)[nH]c(=O)c32)cc1OC (configuration not stated),0.4,-15,-11,-9,4.0%,0.1
CC/C(=N/Nc1ccc(Cl)cc1)c1cnnc(SC)n1,-0.9,7,-9,-3,2.6%,-2.0
COc1cccc(NC(=S)NNC(=O)c2ccccc2OC(F)F)c1,0.5,4,-12,-2,-2.7%[38.3 µM],u
CC(=O)N(c1nnc(-c2ccc(C)cc2)s1)C1CCCC1,0.3,-1,-7,-1,2.0%,-4.3
CCOC(=O)c1c(NC(=O)C2CC=CCC2C(=O)O)sc(C)c1CC (configuration not stated),0.9,x,3,0,-1.7%,-3.0
CCn1c(=O)oc2cc(NC(=O)CCl)ccc21,0.7,0,0,-4,0.6%,-1.2
CCC(=O)N1CCCC1(C)C(=O)Nc1ccc2scnc2c1 (configuration not stated),-0.5,2,3,17,-0.4%,-2.4
CC(C)(C)c1ccc(C(=O)Nc2ccc(O)c3c(=O)cc(-c4ccccc4Cl)oc23)cc1,1.4&0.0,x,7,10,-0.5%,-3.7
CC1Cc2ccccc2N1C(=O)CSc1nc(-c2ccccc2)cs1 (configuration not stated),-0.3,x,3,6,3.1%,3.6
COc1ccc(O)c(C(=O)c2cnc3c(c2)c(C)nn3CCO)c1,-0.5,-22,1,-5,-0.6%,5.5
CCOc1ccc(-c2nnc(N)o2)cc1,-1.1,-1,-8,2,1.7%,-1.3
CCOc1ccc(NC(=O)C(=O)NCC2CCCN2CC)cc1 (configuration not stated),0.3,-24,-13,5,17%[38.3 µM],-1.0
CCOC(=O)Cn1c(=N)n(CCOc2cccc(C)c2)c2ccccc21,-0.7,-1,-26,1,-1.6%,1.1
O=C(c1cn(-c2ccccc2)nc1-c1ccncc1)N1CCCCC1,-0.4,3,-4,-1,-1.5%,-2.0
CC(C)C1C(c2ccccc2)NC(c2ccccc2)CC1(O)c1ccc(F)cc1 (configuration not stated),2.2,-4,-11,2,0.7%,-2.9
CCOC(=O)c1sc(C)c(C(=O)NCCCN2CCOCC2)c1N,-0.5,0,-20,-1,-0.1%,-1.3
COc1cccc(CNC(=O)COC(=O)c2ccc(C(=O)c3ccccc3)cc2)c1,4.7,-2,-2,-3,2.9%,-0.8
CCC(C)(C)NC(=O)C(c1ccc(OC)cc1)N(C(=O)CCC(=O)Nc1cc(C)on1)c1cccc(F)c1 (configuration not stated),0.5,25,9,3,1.5%,-2.1
Cc1ccc(-c2nc3c(c(=O)[nH]c(=O)n3Cc3ccccc3)n2Cc2ccccc2)o1,-1.6,-2,-45,-3,5.8%,0.3
Cc1ccc(OCC(=O)NN2C(=O)c3ccccc3C2=O)cc1,-0.4,-1,4,5,-0.8%,-5.1
CCOC(=O)c1cc(-c2ccccc2)n(CC(=O)Nc2ccc(OC)cc2)c1C,0.2,-17,17,-6,11%,-1.3
Cc1ccc(C2NC(=O)c3c(sc(C)c3C)N2)c(O)c1 (configuration not stated),1.2,-18,-1,-17,3.2%[38.3 µM],-1.8
COc1ccc(NC(=O)CSc2nnc(C3CCCCC3)n2N)cc1OC,0.6,-2,-7,2,0.2%,-2.9
CS(=O)(=O)N1CCCC(C(=O)Nc2ccc(F)c(F)c2)C1 (configuration not stated),-0.8,x,-3,4,0.7%,-3.5
Cc1ccc(N2CCN(S(=O)(=O)c3ccc(F)c(C)c3)CC2)c(C)c1,50*,14,4,4,0.7%,-2.6
Cc1cccn2c(=O)c(/C=C(\C#N)C(=O)NC3CCS(=O)(=O)C3)c(N3CCC(C)CC3)nc12 (configuration not stated),-0.5,6,-16,-19,-1.0%,-6.2
COc1ccc(C(=O)Cn2c(Br)nc3c2c(=O)n(C)c(=O)n3C)cc1,1.2,6,-2,2,u,0.1
CCn1c2ccccc2c2nnc(SCc3ccc(C(=O)OC)o3)nc21,0.0,-23,1,-23,1.3%[38.3 µM],-1.5
COc1ccc(OCC(=O)Nn2c(-c3ccc(C)cc3)nc3ccccc3c2=O)cc1,0.6,-11,0,-16,3.4%,-1.9
Nc1ccc(Cc2ccc(N)c(C(=O)O)c2)cc1C(=O)O,1.5,20,-1,2,11%[38.3 µM],-1.2
Cn1c(NC(=O)c2cccs2)cc(=O)n(C)c1=O,-0.8,0,-6,-4,2.0%,-9.4
O=C1CCCN1CC(O)CS(=O)(=O)Cc1ccccc1Cl (configuration not stated),0.9,2,-2,4,2.5%,-1.8
CN(C(=O)c1ccco1)c1nc(-c2ccc(F)cc2)cs1,-0.3,-3,-6,-9,4.2%,4.7
Cc1cccc2cc(CN(C(=O)c3cnccn3)C3CCCCC3)c(Cl)nc12,1.8,1,-14,-4,8.1%[38.3 µM],-0.2
Nc1cccc(CN2CCCC2)c1,-0.5,x,-11,-9,0.1%,3.0
Cc1ccc(S(=O)(=O)N2CCOCC2)cc1NC(=O)COC(=O)COc1ccc(C#N)cc1,-0.9,-1,-8,-2,-0.2%,-2.6
CO/N=C/c1ccc(Sc2ccccc2)c([N+](=O)[O-])c1,2.2,u,13,u,-1.0%,-1.7
Nc1nonc1-n1nnc(C(=O)N/N=C/c2ccccc2Cl)c1-c1ccccc1,0.3,-2,1,0,-1.7%,4.6
Cc1cc(C)n2nc(CNS(=O)(=O)c3ccc(F)cc3)nc2n1,-0.1&0.1,-2,-4,5,-0.3%&-1.1%,0.9
Cc1cc(C)cc(N(C(=O)c2ccccn2)C(C(=O)NC2CCCCC2)c2ccncc2)c1 (configuration not stated),1.0,-4,-2,3,0.4%,1.9
CCOc1ccc(S(=O)(=O)N2CCN(CCNS(=O)(=O)c3ccc(C)cc3)CC2)cc1,1.3,3,-28,-10,-2.4%,-1.8
CCCCOC(=O)Nc1ccc(C(N)=O)cc1,-0.7,5,3,4,4.9%,-2.8
COC(=O)[C@@]12CCCN1[C@H](c1ccc(-c3ccc(OC)cc3)c(OC)c1)[C@H]1C(=O)N(C)C(=O)[C@H]12,-0.7,-2,-14,3,2.5%,-4.5
Cc1cccc(OCC(=O)NNS(=O)(=O)c2ccccc2F)c1,0.6,3,-5,1,-2.1%,-3.8
CCOC(=O)c1cc(S(=O)(=O)N2CCN(c3ccccc3OC)CC2)cn1C,-0.2,-3,-6,-8,-0.9%,1.3
O=C(Nc1ccc(F)cc1)C1CCC(CNc2c(N3CCCCC3)c(=O)c2=O)CC1 (configuration not stated),0.7,-10,-16,-1,-1.2%,-3.1
Cc1ccc(OCC(=O)Nc2ccc3c(c2)C(=O)NC3=O)cc1,-0.1,-28,-20,-1,2.3%,5.2
Cc1oc(-c2ccc(Cl)cc2)nc1CN1CCC(C(=O)N2CCN(Cc3ccccc3)CC2)CC1,0.2,-2,-2,-9,3.5%,-7.9
COc1cccc(-c2c(NC(=O)c3ccco3)oc3ccc(Cl)cc3c2=O)c1,1.2,2,-1,-6,1.8%,3.0
COc1ccc(NS(=O)(=O)c2ccc3c(c2)N(C(C)=O)CCS3)cc1,-0.2,x,-4,3,1.6%,4.2
CC(=O)NC(CC(=O)Nc1ccc(S(=O)(=O)NC2=NCCCCC2)cc1)c1ccccc1 (configuration not stated),-0.8,x,-12,-5,2.3%,-3.8
C/C(=N\S(=O)(=O)c1ccc(C)cc1)N1CCN(S(=O)(=O)c2ccccc2)C1C(C)C (configuration not stated),-0.4,12,8,16,6.8%[38.3 µM],-0.8
S=C(NCc1cccs1)Nc1cccc(Cl)c1Cl,0.6,-11,-8,6,4.8%,-6.0
O=S(=O)(Nc1cccc(-c2cn3cccnc3n2)c1)c1ccccc1,-0.5,-21,9,-83*,0.4%,-0.1
CC(=O)O[C@]1(C(C)=O)CCC2C3CCC4=C/C(=N/OCC(=O)O)CC[C@]4(C)C3CC[C@@]21C (some centres not stated),-0.6,x,0,-9,3.6%,-4.9

Next section:
Structure,TRPML1 ag,CtBP-E1A inh,D2 potentiator,Six1-Eya2 blk,PINK1 expr mod,D2 agonist
CCOCCCNCC(=O)NCC1CCCCC1,1.4,x,-5,3,1.7%,-1.7
CN(Cc1c(F)cccc1Cl)C(=O)CNC(=O)c1ccc2c(c1)OCO2,-0.2,1,-2,-6,-0.5%,-3.6
COC(=O)c1sc(NC(=O)CSc2nnc(Cn3nnc4ccccc43)n2C)nc1C,-0.2,25,-1,27,14%,-3.0
CN(CC(=O)Nc1ccc(Cl)c(Cl)c1)CC(=O)N1CCCCCC1,-0.6,-2,-20,-8,1.6%,3.3
CS(=O)(=O)N(CC(=O)N1CCc2ccccc2C1)c1ccc(Br)cc1,0.5,3,-9,0,-0.1%,-1.6
c1ccc(-c2noc(-c3ccc4c(c3)OCO4)n2)cc1,-0.5,-3,-3,8,8.7%,-2.8
O=CNc1cc(-c2ccsc2)cn2c(-c3ccccc3)cnc12,0.0,u,-8,-27,0.3%,-2.9
CCCn1c(N)c(C(=O)CSc2ncnc3sccc23)c(=O)n(C)c1=O,0.9,-3,-43,-22,u,-3.0
O=C(OCC(=O)N1CCN(C(=O)c2ccco2)CC1)c1cc(F)c(F)cc1Cl,-0.4,2,3,4,-3.1%,0.1
